Screening results as filed in PubChem.
MT1-MMP act inh = blockers of MT1-MMP proenzyme processing, primary screen, HT1080 RFP-PRO-GFP cells, GFP/RFP fluorescence. Matrix metalloproteinase-14 (Homo sapiens), P50281. GFP/RFP ratio fluorescence, overnight; percent of plate control window, DMSO zero. GFP/RFP ratio change, % at 20 µM. 360,000 tested, 0.061% active;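 active = GFP/RFP ratio change of at least 30% with cell ATP level not reduced by more than half and red fluorescence within 50% of control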; also: strong numbers were not always called active
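Compound: 20 µM single dose, 1% DMSO / System: HT1080 RFP-PRO-GFP cells / Controls: DMSO and RFP-L50D-GFP cell wells / Read-out basis: GFP/RFP fluorescence ratio / Schedule: overnight compound exposure at 37 °C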
Rce1 inhib = yeast Rce1p protease inhibitors, primary screen, biochemical, fluorescence, cell-free homogeneous; CAAX prenyl protease 2 (Saccharomyces cerevisiae (strain ATCC 204508 / S288c)), Q03530; yeast membranes, quenched prenylated peptide cleavage fluorescence; calls only; 290,000 tested, 0.27% active; AID 2563, 2010;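 active = fall in fluorescence gain of 50% or more versus controls, with final raw signal at or below 3038400; inconclusive = same 50% fall but final raw signal above 3038400; inactive = fall in fluorescence gain under 50%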;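 also: plate controls were neutral control wells for no effect and wells lacking membranes for full effect; tested at 10 µM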
Target sequence (Q03530 whole entry, looked up): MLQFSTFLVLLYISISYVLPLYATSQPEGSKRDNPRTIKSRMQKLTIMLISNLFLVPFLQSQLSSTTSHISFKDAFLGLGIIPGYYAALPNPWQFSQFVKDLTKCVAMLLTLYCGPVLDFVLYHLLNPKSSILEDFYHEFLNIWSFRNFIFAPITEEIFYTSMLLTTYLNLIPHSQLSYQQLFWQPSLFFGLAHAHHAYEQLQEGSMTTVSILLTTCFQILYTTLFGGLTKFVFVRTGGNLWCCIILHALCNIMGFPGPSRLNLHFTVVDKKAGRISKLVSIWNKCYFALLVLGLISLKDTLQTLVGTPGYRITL
CSC inhib = cancer stem cell viability inhibitors, primary screen, luminescence. inhibition, % at 7.5 µM. 300,000 tested, 1.1% active. cancer stem cell-like cells viability;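 active = mean at 75% or more and at least half the replicates too; inconclusive = mean and replicates disagree; tested in HMLE shEcad cells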;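 also: 0% = median of negative and 100% = median of positive control wells; the first replicate is given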
eIF4H FP inh = human eIF4H binding inhibitors, primary screen, translation initiation inhibitor project, biochemical, uHTS, fluorescence polarization; 290,000 tested, 0.94% active; inhibition, % at 35 µM; eIF4H fluorescence polarization binding assay;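 active = 50% or more with normal probe brightness, or confirmed in later tests; inconclusive = above 50% with abnormal brightness, or retests that disagree; inactive = below 50% or failed in later tests; about a fifth of its hits are not listed in these tables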;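 also: calls also rest on retests at 20 µM and on dose response follow-up; 0% = protein and probe with vehicle and 100% = probe without protein; strong numbers were not always called active; many hits fall short of the cut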
PABP polyA inh = PABP poly(A) RNA binding inhibitors, primary screen, biochemical, fluorescence polarization, uHTS | Polyadenylate-binding protein 1 (Homo sapiens), P11940 | inhibition, % at 35 µM | AID 2014, 2009 | 290,000 tested, 1% active;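 active = 50% or more with normal probe brightness, or confirmed in later tests; inconclusive = above 50% with abnormal brightness, or retests that disagree; inactive = below 50% or failed in later tests; about a fifth of its hits are not listed in these tables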;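 also: calls also rest on retests at 20 µM and on dose response follow-up; controls were probe without protein and protein plus probe with vehicle; some compounds called inactive have numbers as strong as hits; many hits fall short of the cut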
Target sequence (P11940 whole entry, looked up): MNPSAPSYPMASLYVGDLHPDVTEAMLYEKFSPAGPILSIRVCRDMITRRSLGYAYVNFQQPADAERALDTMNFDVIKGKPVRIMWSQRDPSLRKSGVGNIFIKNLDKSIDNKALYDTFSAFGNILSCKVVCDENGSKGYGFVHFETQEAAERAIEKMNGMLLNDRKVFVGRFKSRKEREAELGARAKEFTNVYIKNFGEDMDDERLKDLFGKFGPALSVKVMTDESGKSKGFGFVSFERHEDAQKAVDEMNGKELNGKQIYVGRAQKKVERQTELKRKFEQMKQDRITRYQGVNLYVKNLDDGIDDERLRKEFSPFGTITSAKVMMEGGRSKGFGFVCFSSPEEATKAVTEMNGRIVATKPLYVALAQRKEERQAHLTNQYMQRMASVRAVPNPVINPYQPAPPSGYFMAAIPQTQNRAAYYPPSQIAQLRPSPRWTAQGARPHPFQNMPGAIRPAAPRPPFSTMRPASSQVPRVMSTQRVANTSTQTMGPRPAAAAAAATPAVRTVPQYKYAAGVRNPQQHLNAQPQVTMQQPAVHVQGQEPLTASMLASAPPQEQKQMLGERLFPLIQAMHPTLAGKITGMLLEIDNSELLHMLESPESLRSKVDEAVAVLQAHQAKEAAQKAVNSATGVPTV
Env fusion inh = inhibitors of HIV-1 Env-driven cell-cell fusion, primary screen, HeLa-JRFL effector, CEM21 target cells, luciferase; inhibition, % at 12.3 µM; 360,000 tested, 1.1% active;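 active = mean replicate inhibition score of at least 50 and every replicate individually at or above 50; inconclusive = only one of the two criteria met; inactive = mean below 50 and not all replicates reaching 50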;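 also: 0% = plate neutral controls and 100% = maraviroc near 300 nM; one replicate is shown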
Yeast UUG start = modulators of yeast start codon fidelity, primary screen, whole organism, S. cerevisiae, single point, plate reader | activity score, % at 18.7 µM | 350,000 tested, 0.13% active | S. cerevisiae UUG-firefly luciferase reporter, luminescence/redox ratio;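 active = replicate mean at a twofold rise or more, about +100% in these data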;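 also: firefly luciferase made from a UUG start codon reports start codon fidelity; reporter light over untreated wells divided by growth signal over untreated wells; some hits fall short of that in this replicate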
MT1-MMP act inh RFP = further read-out of MT1-MMP act inh, marked with its call; RFP signal change, %; measured here: RFP expression control read;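 0 = vehicle wells; hits needed this value within 50% of zero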
* hit, by the source's call; i = inactive; ? = inconclusive; / = not tested or not shown; + = active, no number; & = joins results of further samples.

Sequence of screens – MT1-MMP act inh	MT1-MMP act inh RFP	Rce1 inhib	CSC inhib	eIF4H FP inh	PABP polyA inh	Env fusion inh	Yeast UUG start
CCCCCCSc1cc(-c2nc3cnccn3c2NCc2ccccc2)ccc1OC
    -16	-11	i	/	/	/	/	-21
Cc1ccc(S(=O)(=O)NCc2ccc(/C=C(/C#N)C(=O)NCc3ccccc3)o2)cc1
    -3	-1	i	-12	35	-9	16	/
c1ccc(C2=Nn3c(nnc3-c3n[nH]c4c3CCC4)SC2)cc1
    16	21	i	-9	0	10	/	-18
c1ccc2nc(-c3nc4ccccc4[nH]3)ccc2c1
    2	0	i	76*	8	-1	/	-47
CC(C)CCCN1C(Nc2ccccc2)=NC[C@@H]1C
    5	0	i	-1	16	1	23	-14
[N-]=[N+]=NCCN1CCN(CCc2ccccc2)CCC1=O
    -1	2	i	-4	5	3	-35	-16
Cc1ccc(NC(=O)C2CCCCC2)cc1C
    0	2	/	-13	/	/	-8	-18
N#CCOc1coc(CN2CCN(c3cccc(Cl)c3)CC2)cc1=O
    5	3	i	-19	-3	5	7	-18
COc1ccc(-c2cc(C(=O)Nc3cc(OC)cc(C(=O)Nc4cccc(C(F)(F)F)c4)c3)[nH]n2)cc1
    -2&2	-1&2	i	14	1	-11	16	-7&-17
O=C(O)c1cc(/C=N\O)ccc1OCc1ccccc1
    0	-8	i	7	11	9	7	-15
O=C(CNC1CCCCCC1)Nc1ccccc1N1CCOCC1
    3	2	i	6	15	16	-4	/
COc1ccc2cc(C(=O)C3CCCN(C(=O)CCc4cnn(C)c4)C3)ccc2c1 (configuration not stated)
    -7	-6	+	3	3	-5	-4	/
Cc1nn(CC(=O)NCCCN2CCCCC2)c(=O)c2cc(-c3ccccc3)nn12
    -2	-4	i	3	6	5	16	-13
CN(C)c1ccc(/C=C(\C#N)C(=O)c2ccccc2)cc1
    -3	6	i	1	?	?	-14	-10
O=C(/C=C/c1ccccc1)COC(=O)c1ccccc1
    1	2	/	/	/	/	-3	-7
O=C(NCCc1ccccc1)c1ccc2c(c1)S(=O)(=O)c1ccccc1C2=O
    -1	-1	i	19	/	/	-19	-4
COc1ccccc1CNC(=O)C1CCN(S(=O)(=O)c2ccc3c(c2)CC(C)N3C(C)=O)CC1 (configuration not stated)
    0	2	i	-22	-1	2	15	-23
CC(C)N(C(=O)CN(C#N)c1nc(N(C)C)nc(N(C)C)n1)c1ccccc1
    3	-1	i	-4	-5	-1	/	-1
Cc1nnc(SCC(=O)NCc2ccco2)n1-c1ccccc1
    2	5	i	-7	4	9	?	-16
CCc1oc(C(=O)O)cc1CN(CC)CC
    4	4	i	1	0	6	-28	6
CC(C)c1ccc(-c2nc(N3CCCCCC3)nc3n[nH]c(N)c23)cc1
    -1	-4	i	-3	-4	3	-29	-5
COc1cc(CC(=O)OCC(=O)NC(C)c2ccccc2)cc(OC)c1OC (configuration not stated)
    0	2	/	11	/	/	/	-11
CCOC(=O)NC(=O)CSc1nnnn1-c1ccc(Cl)cc1
    -1	0	i	-5	13	6	/	-3
Cc1c(C(=O)N(C)C2CC(C)(C)NC(C)(C)C2)oc2c(F)cccc12
    1	1	i	-11	10	7	-5	-9
CC(C)Nc1nc(NC(N)=S)nc(NC(C)C)n1
    0	2	i	-7	-7	-3	-10	/
O=C(Nc1ccc(OCc2ccccc2)cc1)c1cccs1
    5	-5	i	80*	-8	-12	-52	-12
COc1ccc(C2OC3=C(Nc4cc(C)c(C)cc4N3)C2=O)cc1 (configuration not stated)
    1	1	i	-3	-6	3	-47	-14
Cn1c(NCCO)nc2c(c1=O)C1(CCCCC1)Cc1ccccc1-2
    5	2	i	8	-9	-11	7	-7
COc1ccc(/C=C/C(=O)NCC(=O)N/N=C/c2ccc(OC)cc2)cc1
    -3	-5	i	-1	-8	-2	-7	/
Clc1ccc(Cn2ncc3c(N4CCCCC4)ncnc32)cc1
    6	-6	i	-4	3	4	/	-19

Compounds shown so far containing an NH in an aromatic ring (4):
Sequence of screens – MT1-MMP act inh	MT1-MMP act inh RFP	Rce1 inhib	CSC inhib	eIF4H FP inh	PABP polyA inh	Env fusion inh	Yeast UUG start
c1ccc(C2=Nn3c(nnc3-c3n[nH]c4c3CCC4)SC2)cc1
    16	21	i	-9	0	10	/	-18
c1ccc2nc(-c3nc4ccccc4[nH]3)ccc2c1
    2	0	i	76*	8	-1	/	-47
COc1ccc(-c2cc(C(=O)Nc3cc(OC)cc(C(=O)Nc4cccc(C(F)(F)F)c4)c3)[nH]n2)cc1
    -2&2	-1&2	i	14	1	-11	16	-7&-17
CC(C)c1ccc(-c2nc(N3CCCCCC3)nc3n[nH]c(N)c23)cc1
    -1	-4	i	-3	-4	3	-29	-5

Continuation.
Sequence of screens – MT1-MMP act inh	MT1-MMP act inh RFP	Rce1 inhib	CSC inhib	eIF4H FP inh	PABP polyA inh	Env fusion inh	Yeast UUG start
COc1ccc(OC)c(C2C(C(C)=O)=C(O)C(=O)N2c2ccc(O)cc2)c1 (configuration not stated)
    4	5	i	-10	-3	7	/	/
Cc1cc(C)c(-c2cc(NC(=O)COC(=O)c3ccc(C#N)cc3)n(-c3ccccc3)n2)cc1C
    2	2	i	-8	-7	-3	2	6
CC(C)(C)C(=O)Cn1ncc(N2CCOCC2)c(Cl)c1=O
    -2	-2	i	0	9	-4	16	-4
C=C(C)Cn1c(NCCC)nc2c1c(=O)n(C)c(=O)n2C
    3	-3	i	-4	2	-8	-11	-21
C/C=C(\C)C(=O)N1CC2(CC(c3cccc(NC(=O)CC(c4ccccc4)c4ccccc4)c3)=NO2)C[C@H]1C(N)=O (some centres not stated)
    /	/	i	/	-12	1	/	/
CCN=C1S/C(=C\c2cc(Br)ccc2OCC(=O)OCC)C(=O)N1CC
    -2	-1	i	17	6	-3	12	/
C=CCC1(CC=C)CCCN1C(=O)c1cc(COc2cccc(C(F)(F)F)c2)on1
    6	-17	i	14	-2	1	46	30
O=C(O)/C(=C\C(=O)c1ccccc1)Nc1ccccc1
    /	/	i	-18	1	1	/	/
O=C(N/C(=C\c1cccnc1)C(=O)N1CCOCC1)c1ccco1
    -3	4	i	-13	2	1	1	/
Cc1cc(C)c(S(=O)(=O)N2CCN(C(=O)c3c(C)nn(-c4ccccc4)c3Cl)CC2)c(C)c1
    -7	-15	/	/	/	/	39	-9
COc1ccc(C(CC(=O)O)NC(=O)Cc2ccccc2)cc1 (configuration not stated)
    -2	4	i	2	5	4	/	-4
Cc1cccc(NC(=O)CN2C(=O)S/C(=C\C(=O)Nc3ccc(Cl)cc3)C2=O)c1
    -1	3	i	2	6	6	5	-10
CCOc1ncccc1C(=O)OCC(=O)Nc1ccc(Cl)cn1
    -2	0	/	-13	/	/	23	-16
COc1ccccc1OCC(=O)NCCCN1CCOCC1
    -7	-5	i	-6	8	4	9	-7
O=C(CN1C(=O)CSc2ccc(C(F)(F)F)cc21)Nc1ccccc1
    1	0	i	-7	1	12	-1	-6
CC1Cn2c(nc3sc4c(c3c2=O)CCC4)N1CCO (configuration not stated)
    -1	4	i	-4	1	28	9	/
COc1ccc(Cc2nnc(NC(=O)Nc3ccccc3OC)s2)cc1
    2	-1	i	6	-6	10	15	-17
CNc1c(NS(=O)(=O)c2ccc(OC)cc2)c(=O)oc2ccccc12
    1	1	i	-4	1	10	-21	-8
OC(COCc1ccccc1)CN1CCc2ccccc2C1 (configuration not stated)
    4	10	i	-13	0	12	-1	/
Cc1cccc(N(C(=O)CCC(=O)Nc2nccs2)C(C(=O)NC(C)(C)C)c2ccc(O)cc2)c1 (configuration not stated)
    -9	-3	i	/	-3	-5	5	/
CCn1c(SCc2ccc(C(=O)OC)o2)nc2sc3c(c2c1=O)CCCC3
    -6	-1	i	4	0	-6	/	-19
COc1ccc(OC)c(N(CC(=O)NC2CC3CCC2C3)S(=O)(=O)c2ccccc2)c1 (configuration not stated)
    1	1	i	3	-11	-9	-14	2
O=S(=O)(c1cccs1)N1CCc2ccccc2C1
    4	7	i	-4	-5	-2	/	6
O=S(=O)(c1ccc(F)cc1)n1ccc(-c2cccc(OCc3ccc(Cl)cc3Cl)c2)n1
    1	3	i	25	0	-1	11	-27
CC(C)C(=O)N1CCN(c2ccccc2NC(=O)c2cccc(Cl)c2)CC1
    -4	-7	i	-9	-4	-6	/	-12
COC(=O)CSc1[nH]c2ccc(F)cc2c1[N+](=O)[O-]
    3	9	i	-5	12	0	15	-18
O=C(NCc1cccnc1)c1ccccc1NC(=O)c1c(F)cccc1F
    0	4	i	7	-11	4	-31	-14
CN(C(=O)c1ccccc1OCc1ccc(Cl)cc1)c1ccccc1
    -13	-8	i	3	-4	6	-121	-5
COc1ccc(C(=O)NC(C)CCc2ccccc2)cc1[N+](=O)[O-] (configuration not stated)
    3	-2	i	/	2	2	8	-13
CCOc1ccc(NC(=O)CN(C)C(=O)CCCNC(=O)c2ccc(Cl)cc2)cc1OCC
    5	5	/	/	/	/	-67	16

Full records from above. Screens in order: MT1-MMP act inh	MT1-MMP act inh RFP	Rce1 inhib	CSC inhib	eIF4H FP inh	PABP polyA inh	Env fusion inh	Yeast UUG start
`COc1ccccc1CNC(=O)C1CCN(S(=O)(=O)c2ccc3c(c2)CC(C)N3C(C)=O)CC1` (configuration not stated) in the list: 0	2	i	-22	-1	2	15	-23
`Cc1cccc(N(C(=O)CCC(=O)Nc2nccs2)C(C(=O)NC(C)(C)C)c2ccc(O)cc2)c1` (configuration not stated) in the list: -9	-3	i	/	-3	-5	5	/
`Cc1c(C(=O)N(C)C2CC(C)(C)NC(C)(C)C2)oc2c(F)cccc12` in the list: 1	1	i	-11	10	7	-5	-9

More records:
Sequence of screens – MT1-MMP act inh	MT1-MMP act inh RFP	Rce1 inhib	CSC inhib	eIF4H FP inh	PABP polyA inh	Env fusion inh	Yeast UUG start
CCC(CC)C(=O)NCCc1ccc(F)cc1
    -1	0	i	-5	5	11	-49	-10
FC(F)(F)c1ccnc(Oc2ccc(C3=NCCS3)cc2)c1
    7	-4	i	-11	-9	5	-65	/
COc1ccccc1NC(=O)CSC1CC(=O)N(c2ccc3c(c2)OCO3)C1=O (configuration not stated)
    0	3	i	-12	-3	2	-92	-9
OCC1OC(n2ccc3c2ncn2ncnc32)C(O)C1O (configuration not stated)
    -4	-5	/	/	/	/	55*	18
CCC(C)(C)n1nnnc1C(C(C)C)N1CCN(C)CC1 (configuration not stated)
    -9	4	i	/	-1	9	/	0
Cc1ccc(S(=O)(=O)c2ccc(Cl)cc2)cc1S(=O)(=O)N1CCN(C)CC1
    -10	-10	i	-8	5	2	/	-4
Cc1ccc(C(=O)OCC(=O)c2ccc(CC(=O)N3CCOCC3)s2)c(C)c1
    -6	-3	/	/	/	/	-6	-1
CC1CCN(S(=O)(=O)c2cn(CC(=O)Nc3ccc(C#N)cc3)cn2)CC1
    -4	0	i	-1	-11	5	2	9

Not all compounds are listed; rates above refer to the full screens.
